Assay outcomes (PubChem)
StopGo reporter: High Throughput Screening for Foot and Mouth Disease Virus Antivirals. human cells with a luciferase reporter of 2A StopGo recoding; control for the full effect not named in the record. Potency, µM (top dose mostly 57.9 µM), inactives show at the top dose signal change, negative = less light. hit rate 1.2% among 410,000; active = well fitted falling curve with a large enough effect; inconclusive = small, poorly fitted or top-dose-only effect; inactive = no such curve, though single readings can be large or run the other way; tested in HEK293T cells; further: on the % scale 0 is the no-effect control and ±100 the full control effect; nearly all actives have a fitted effect of over 45% in size; luciferase light after 4 h
Marburg entry inh: qHTS for inhibitors of binding or entry into cells for Marburg Virus. Marburg virus pseudotyped entry inhibition, cell reporter; control for the full effect not named in the record; about a third of the inactives were read at about 46 µM. Potency, µM (top dose mostly 37.8 µM), for inactives: top-dose activity change, negative = inhibition, most hits filed as inhibitors. hit rate 1.8% among 300,000; active = well fitted inhibition curve with a large enough effect; inconclusive = small, poorly fitted or top-dose-only effect, or effect the other way; inactive = flat fitted curve, though single readings scatter; tested in HEK293 cells; about a fifth of its hits are not listed in these tables; further: on the % scale 0 is the no-effect control and ±100 the full control effect; luciferase read-out
NS1 inh: qHTS Assay for Inhibitors of Influenza NS1 Protein Function; S. cerevisiae slowed by influenza A NS1, growth recovery by OD600; hit rate 0.4% among 270,000; Potency, µM (series often up to 46.1 µM), for the others: top-dose activity, positive = more growth; further: actives are rising curves; nearly all actives have a fitted effect of over 50% in size
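A cell-based growth assay was used: compounds that relieve NS1-induced slow growth of budding yeast raise OD600. Assay medium was yeast nitrogen base with ammonium sulphate and -URA supplement, pH 6.0, with 2% galactose.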
Cruzain inh Det: qHTS Assay for Promiscuous and Specific Inhibitors of Cruzain (with detergent). purified cruzain, Z-FR-AMC fluorescence, 0.01% Triton. Potency, µM, for the others: max response, negative = inhibition, actives largely listed as inhibitors. Cruzipain (Trypanosoma cruzi), P25779. hit rate 0.43% among 200,000; active means well fitted curve in the direction sought with a large enough effect; inconclusive means small, poorly fitted or top-dose-only effect, or another doubt; inactive means no such curve, though single readings can be large; an effect the other way counts as inactive or inconclusive;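 further: plate controls were neutral wells for no effect and buffer without enzyme for full effect; nearly all actives have a fitted effect of over 40% in size; top concentration of the series not given in the record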
Target sequence (P25779 123-467 limits assumed): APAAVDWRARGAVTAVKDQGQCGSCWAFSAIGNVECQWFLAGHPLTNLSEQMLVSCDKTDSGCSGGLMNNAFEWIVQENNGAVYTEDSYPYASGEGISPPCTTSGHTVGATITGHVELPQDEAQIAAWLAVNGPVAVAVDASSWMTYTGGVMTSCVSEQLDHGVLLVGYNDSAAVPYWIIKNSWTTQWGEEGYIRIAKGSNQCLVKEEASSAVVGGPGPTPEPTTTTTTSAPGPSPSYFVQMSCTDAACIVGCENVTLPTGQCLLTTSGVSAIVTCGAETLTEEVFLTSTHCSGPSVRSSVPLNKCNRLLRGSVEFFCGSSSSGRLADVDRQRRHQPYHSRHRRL
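Cruzain (1.5 nM) preincubated 15 min at RT with compound in 100 mM sodium acetate pH 5.5, 5 mM DTT, 0.01% Triton X-100. Reaction started with 2 uM Z-FR-AMC; AMC fluorescence (ex 360/em 450 nm) change over 60 s gave rate.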
Cruzain noTriton: qHTS Assay for Promiscuous and Specific Inhibitors of Cruzain (without detergent) | Cruzipain (Trypanosoma cruzi), P25779 | purified cruzain, Z-FR-AMC fluorescence, no detergent | Potency, µM, for the others: max response, negative = inhibition, actives largely listed as inhibitors | hit rate 2.3% among 200,000 | AID 1476, 2009; active means well fitted curve in the direction sought with a large enough effect; inconclusive means small, poorly fitted or top-dose-only effect, or another doubt; inactive means no such curve, though single readings can be large; an effect the other way counts as inactive or inconclusive;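 further: plate controls were enzyme without inhibitor for no effect and buffer without enzyme for full effect; nearly all actives have a fitted effect of over 40% in size; top concentration of the series not given in the record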
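Detergent-free condition (0.00005% Triton X-100) in acetate buffer pH 5.5 with DTT. 1.5 nM enzyme and compound were pre-mixed 15 min, then 2 uM Z-FR-AMC substrate added; reaction progress from fluorescence change between first and third reads (60 s).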
LASV entry inh: qHTS for Inhibitors of binding or entry into cells for Lassa Virus | AID 540256, 2011 | hit rate 1.2% among 300,000 | Lassa virus pseudotype entry inhibition, cell reporter; control for the full effect not named in the record | Potency, µM (top dose mostly 37.9 µM), without a hit: at the top dose activity change, negative = inhibition, usual class: inhibitors; active means well fitted inhibition curve with a large enough effect; inconclusive means small, poorly fitted or top-dose-only effect, or effect the other way; inactive means flat fitted curve, though single readings scatter; tested in HEK293 cells; further: on the % scale 0 is the no-effect control and ±100 the full control effect; nearly all actives have a fitted effect of over 50% in size; luciferase read-out
SARS PLP yeast: qHTS of Yeast-based Assay for SARS-CoV PLP; AID 485353, 2010; hit rate 0.19% among 330,000; Potency, µM (highest dose often 32.9 µM), for the others: top-dose activity, positive = growth rescue; S. cerevisiae expressing SARS-CoV PLpro, growth rescue; control for the full effect not named in the record; further: 0% is about no effect; nearly all actives have a fitted effect of over 55% in size; growth read by luminescence after 48 h
RE007 growth inh: qHTS Assay for Inhibitors of the HIV-1 protein Vpr. hit rate 0.21% among 360,000. S. pombe RE007 Vpr strain, BacTiter-Glo ATP luminescence, 24 h; control for the full effect not named in the record. Potency, µM (doses to about 92.2 µM), for the others: at the highest dose activity change, negative = less growth; active = well fitted falling curve with a large enough effect; inconclusive = small, poorly fitted or top-dose-only effect; inactive = no such curve, though single readings can be large or run the other way;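 further: on the % scale 0 is the no-effect control and ±100 the full control effect; nearly all actives have a fitted effect of over 50% in size; the assay follows cell death caused by Vpr and the record does not say whether a fall means rescue or toxicity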
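Fission yeast RE007 carrying one integrated HIV-1 vpr copy, seeded at OD 0.01 in PMG+AL medium with 23 nL pinned compound. Grown 24 h at 30 degrees; viability read by BacTiter-Glo luminescence after 5 min.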
* marks the source's active call; other numbers are inactive results; ? = inconclusive; / = not tested or not shown; & = joins results of further samples; [ ] = dose if it differs, or a comment. Unless noted, the call rests on the fitted dose curve; in most records, active means well fitted rising curve with a large enough effect; inconclusive means small, poorly fitted or top-dose-only effect; inactive means no such curve, though single readings can be large or run the other way. Potency means the concentration at half of the fitted maximal effect. Outcome played no part in choosing rows; any-hit rate near 4.8%.

SMILES	StopGo reporter	Marburg entry inh	NS1 inh	Cruzain inh Det	Cruzain noTriton	LASV entry inh	SARS PLP yeast	RE007 growth inh
CC(Sc1nnc(CN2CCCC2)n1Cc1ccccc1)C(=O)Nc1ccc(F)c(F)c1F (stereo not drawn)	15%	?	/	/	/	-7%	/	-13%
C=C1CC[C@@H]2[C@](C)(CO)[C@H](O)CC[C@@]2(C)[C@@H]1/C=C/C1=CCOC1=O	?	/	-4%	/	/	/	-1%	3%
CCOC(=O)c1sc(NC(=O)CSc2nc3ccccc3s2)c(C(=O)OCC)c1C	/	19%	14%	-5.1%	20µM*	-2%	-19%	/
COc1ccc(C(=O)Nc2nnc(C3=COCCO3)o2)cc1	6%	?	-16%	/	/	?	1%	-17%
Cc1nc(-c2ccc(C(=O)N3CCOCC3)cc2)cs1	24%	30%[46.1 µM]	1%	5.6%	1%	?	1%	10%
O=C(CSCc1c[nH]c(=O)[nH]c1=O)OCC(=O)c1ccc(Br)cc1	-9%	-1%[46.1 µM]	2%	/	/	-17%[46.1 µM]	1%	1%
Cc1nnc(SC(C)C(=O)Nc2ccc(S(=O)(=O)NC3CCCCC3)cc2)s1 (stereo not drawn)	/	0%	-3%	-3.7%	5%	-6%	-4%	4%
O=C1C=CC(=O)N1Nc1ccc(Br)cc1	10%	3%	10%	-3.4%	2%	29%	?	-9%
N#Cc1ccccc1OCC(=O)OCC(=O)N1CCN(C(=O)c2ccco2)CC1	-4%	?	3%	/	/	?	3%	7%
Cc1ccc(OC(C)C(=O)N2CC(=O)Nc3ccccc32)c(C)c1 (stereo not drawn)	2%	-12%[46.1 µM]	4%	/	/	2%[46.1 µM]	-2%	-3%
Fc1ccc2nc(-c3ccccc3)nc(SCc3nnc(-c4ccccc4)o3)c2c1	-42%	?	-22%	2.3%	?	-17%	-5%	-6%
COC(=O)c1sc2cccc(F)c2c1S(=O)(=O)Nc1cc(C)c(Cl)cc1OC	3%	/	/	-7.4%	-8%	?	/	/
CCOc1ccc(S(=O)(=O)NC(Cc2c[nH]c3ccccc23)C(=O)O)cc1 (stereo not drawn)	-1%	/	1%	/	/	/	1%	-2%
Cc1ccc(C(C(=O)NC(C)(C)C)N(Cc2ccco2)C(=O)CCC(=O)Nc2ccccn2)cc1 (stereo not drawn)	43%[activator]	?	1%	/	/	26%	3%	-6%
CCCCC(=O)NC1(C(F)(F)F)C(=O)N(CC(C)C)C2=C1C(=O)CC(C)(C)C2 (stereo not drawn)	0%	28%	-1%	-1.3%	10%	-14%	-1%	5%
CCn1cc(C(=O)N2CCCc3ccccc32)c2cc(OC)c(OC)cc2c1=O	-2%	?	-14%	2.0%	5%	-18%	6%	3%
COc1cccc(N=Nc2c(=O)[nH]n3c(C)cc(C)nc23)c1	0%	-16%	-12%	-16%	-11%	3%	-2%	1%
CC(=O)N1[C@H](C)C=C[C@]1(Cc1ccccc1)C(=O)NCCN1CCOCC1	8%	/	/	-0.5%	-6%	/	/	1%
N#Cc1c(-c2ccc(F)cc2)c(-c2ccc(F)cc2)nn(CCO)c1=O	-23%	?	/	/	/	?	/	0%
CCOc1ccc(CCNC(=O)c2cc3sccc3n2CC)cc1OCC	?	?	-19%	-7.1%&-3.2%	6%&15%	15µM*	/	6%
COc1cccc(CC(=O)NC2CCSc3ccccc32)c1 (stereo not drawn)	26%	17%[46.1 µM]	-10%	/	/	-13%	-4%	1%
COc1ccccc1-n1c(=O)c2c3c(sc2n(C)c1=O)CN(C(C)=O)CC3	5%	/	/	0.5%	-4%	5%[46.1 µM]	/	/
Cc1nn(C)c(Oc2cccc(Cl)c2)c1C(=O)Nc1ccc(F)cc1F	0%	3%	-4%	-5.1%	?	6%	5%	-5%
O=C(NC12CC3CC(CC(C3)C1)C2)c1ccc(-c2ccccc2Cl)o1	-9%	?	15%	0.8%	-20%	?	-21%	-19%
C=CCn1c(=O)c(C(=O)Nc2ncccc2O)c(O)c2ccccc21	-4%	-11%[46.1 µM]	-30%	/	/	-21%[46.1 µM]	?	-23%

An excerpt of these results, bar-delimited:
SMILES | StopGo reporter | Marburg entry inh | NS1 inh | Cruzain inh Det | Cruzain noTriton | LASV entry inh | SARS PLP yeast | RE007 growth inh
CC(=O)N1[C@H](C)C=C[C@]1(Cc1ccccc1)C(=O)NCCN1CCOCC1 | 8% | / | / | -0.5% | -6% | / | / | 1%
N#Cc1c(-c2ccc(F)cc2)c(-c2ccc(F)cc2)nn(CCO)c1=O | -23% | ? | / | / | / | ? | / | 0%
CCOc1ccc(CCNC(=O)c2cc3sccc3n2CC)cc1OCC | ? | ? | -19% | -7.1%&-3.2% | 6%&15% | 15µM* | / | 6%
COc1cccc(CC(=O)NC2CCSc3ccccc32)c1 (stereo not drawn) | 26% | 17%[46.1 µM] | -10% | / | / | -13% | -4% | 1%
COc1ccccc1-n1c(=O)c2c3c(sc2n(C)c1=O)CN(C(C)=O)CC3 | 5% | / | / | 0.5% | -4% | 5%[46.1 µM] | / | /
Cc1nn(C)c(Oc2cccc(Cl)c2)c1C(=O)Nc1ccc(F)cc1F | 0% | 3% | -4% | -5.1% | ? | 6% | 5% | -5%

The list continues.
SMILES	StopGo reporter	Marburg entry inh	NS1 inh	Cruzain inh Det	Cruzain noTriton	LASV entry inh	SARS PLP yeast	RE007 growth inh
CCOC(=O)c1ccc2nc(NC(=O)c3ccco3)sc2c1	-14%	?	-24%	-2.7%	17%	?	-75%	0%
Cc1onc(-c2ccccc2)c1CNC(=O)Nc1ccc(F)cc1F	-22%	/	2%	/	/	/	0%	-2%
Nc1ccc2ccccc2c1C(=O)c1ccccc1	-2%	4%[46.1 µM]	/	/	/	3%[46.1 µM]	/	8%
CC1CCCC(=C\c2ccccc2)/C1=N/O (stereo not drawn)	-35%	-1%	-18%	-1.0%	-9%	12%	-18%	-15%
CC(=O)c1c(C(C)=O)c(C)n(NC(=O)c2ccc(Cl)cc2)c1C	-11%	4%	1%	4.4%	4%	-7%	6%	-2%
CC(=O)NS(=O)(=O)c1ccc(N=NN2CCOCC2)cc1	-5%	29%	8%	-5.9%	-10%	-4%	?	-15%
CCC(C)c1ccccc1NC(=O)COC(=O)c1ccc2[nH]c3c(c2c1)CCCC3 (stereo not drawn)	28µM*	2.2µM*	14%	-7.7%	?	?	-32%	29%
CC1CN(C(=O)c2ccccc2Oc2ccccc2)CC(C)O1 (stereo not drawn)	10%	/	-3%	/	/	/	1%	3%
COc1cc(OC)cc(C(=O)NNC(=O)CCCOc2ccccc2)c1	-16%	17%	/	/	/	8%	-4%	-8%
CCCCSc1nsc(NC(C)=O)n1	19%	-7%	-7%	0.8%	-5%	6%	-19%	-9%[3.69 µM]
Cc1n[nH]c(C)c1CCOc1ccc(C(C)C)cc1	1%	?	-69%	-0.1%	12%	3%	/	-6%
O=C(NC1CCCC1)c1ccc2c(=O)n(Cc3ccccc3)c(SCc3cccc([N+](=O)[O-])c3)nc2c1	-12%	/	/	1.8%	-4%	-12%[46.1 µM]	/	/
CCOC(=O)CCCn1c(C)nc(=O)c(-c2ccccc2)c1C	0%	?	3%	0.6%	-4%	11%	2%	1%
Cc1cc(OC(C)C(=O)NCC(O)c2ccccc2)c2c3c(c(=O)oc2c1)CCCC3 (stereo not drawn)	4%	/	-16%	/	/	/	11%	7%
S=C(Nc1ccc2c(c1)OCO2)NC1CCN(Cc2ccccc2)CC1	-11%	-11%	-6%	4.1%	-14%	-6%	1%	-9%
CSCC[C@H](NC(=O)C1CCN(S(=O)(=O)c2ccc(C)cc2)CC1)C(=O)NCc1ccco1	0%	14%	-19%	-3.5%	-7%	-5%	-4%	11%
CC(/C=C/C=C/c1ccccc1)=N/NC(=O)CNc1ccc(C)cc1	38%[activator]	-21%	1%	4.0%	?	?	2%	-3%
Cc1ccc(C)c(NS(=O)(=O)c2c(C)nc3sccn3c2=O)c1	10%	/	6%	/	/	/	0%	-7%
CCCS(=O)(=O)NCCc1cc2ccc(C)cc2[nH]c1=O	/	-4%	2%	-6.7%	4%	?	4%	4%
CCN(c1cccc(C)c1)S(=O)(=O)c1ccc(-c2ccc(=O)[nH]n2)o1	-6%	/	3%	/	/	/	0%	12%
O=C(/C=C/c1ccc(O)cc1)c1ccc(NC2=C(N3CCCCC3)C(=O)c3ccccc3C2=O)cc1	?	?	26%	-5.9%	13µM*	?	-1%	-6%
O=C(CSc1nc2c([nH]c3ccccc32)c(=O)n1-c1ccc(Cl)cc1)N1CCCC1	-10%	/	/	0.1%	-1%	19%[46.1 µM]	/	/
Cc1ccc(C)c(-n2c(Cc3cc(=O)[nH]c(=O)[nH]3)nnc2SCC(=O)NCC2CCCO2)c1 (stereo not drawn)	-7%	?	1%	1.4%	-2%	13%	-6%	1%
N=c1sccn1CC(=O)Nc1ccccc1Oc1ccccc1	-6%	-30%	10%	3.0%	-3%	14%	-2%	-7%
CC(C)(C)C(=O)NCCn1ccc2ccccc21	7%	3%	4%	-5.2%	3%	/	0%	27%
Cc1sc2ncnc(OCC(=O)NCc3cccs3)c2c1C	-9%	13%	-13%	-2.2%	-28%	23%	-8%	34%
CCS(=O)(=O)N1CCc2cc(C(=O)NCCc3ccc(OC)cc3)ccc21	-29%	-2%[46.1 µM]	/	-0.3%	-4%	19%[46.1 µM]	/	/
C=CCn1c(SCC(=O)NC2(C#N)CCCCC2)nnc1-c1ccncc1	-6%	1%[46.1 µM]	/	/	/	-5%	-2%	7%
